AmpC nodet inh = blocks E. coli AmpC beta-lactamase in absence of detergent; actives 1.8% (n = 71,000); AmpC nitrocefin hydrolysis, absorbance 480 nm, no detergent; potencies from a single point are estimates; P00811; Potency, µM (top dose mostly 28.7 µM), for the others: at the highest dose activity change, negative = inhibition; active = falling curve, for most hits resting on a single point; inconclusive = weak or doubtful change; inactive = flat or rising curve; also: % of control where 0% means no effect; about half of the hits show no inhibition at the top dose; a quarter of the inactives give rising signals
Target sequence (P00811 whole entry, looked up): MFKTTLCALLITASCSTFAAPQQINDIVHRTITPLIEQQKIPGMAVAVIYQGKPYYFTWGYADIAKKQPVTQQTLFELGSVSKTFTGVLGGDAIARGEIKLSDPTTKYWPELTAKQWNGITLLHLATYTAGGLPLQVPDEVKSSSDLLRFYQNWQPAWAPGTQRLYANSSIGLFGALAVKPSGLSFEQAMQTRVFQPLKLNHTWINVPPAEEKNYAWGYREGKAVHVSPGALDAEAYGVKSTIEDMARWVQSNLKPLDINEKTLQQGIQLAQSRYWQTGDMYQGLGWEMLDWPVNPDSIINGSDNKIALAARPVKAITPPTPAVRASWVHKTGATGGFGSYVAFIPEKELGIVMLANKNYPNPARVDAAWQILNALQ
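Enzyme, pH 7.0 phosphate. Compound titrations were pre-incubated with AmpC for 15 min at room temperature before nitrocefin (stock 800 uM) addition; product formation was recorded at 480 nm every 20 s for 4 min.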
Numbers without * were called inactive; ? = inconclusive; [ ] = another dose, or the depositor's remark. Potency is read from the fitted curve at half-maximal effect. Only part of the results is shown. The share of hits here may be higher or lower than overall.

c1csc(CNc2nc3ccccc3n2CCN2CCOCC2)c1
  AmpC nodet inh: -18.8%
Cc1sc2nc3c4ccccc4c(NCc4ccco4)nn3c(=O)c2c1C
  AmpC nodet inh: 81.9%
COc1ccccc1-c1cc(N(C)Cc2ccco2)ncn1
  AmpC nodet inh: 34.9%
CCC/C=C(\CCC)C(NC(=O)c1ccc(-c2ccccc2)cc1)c1ccc(C(=O)OC)cc1 (stereo unspecified)
  AmpC nodet inh: -6.2%
O=C(Nc1ccccc1Cl)c1cnccn1
  AmpC nodet inh: -1.8%
CCOc1ccc(N(Cc2cc3ccc(C)cc3[nH]c2=O)C(=O)COC)cc1
  AmpC nodet inh: 41.7%
COc1ccc(S(=O)(=O)N2Cc3ccccc3CC2C(=O)N2CCOCC2)cc1 (stereo unspecified)
  AmpC nodet inh: 105.5%
CC#CCOC(=O)C1=CCCN(C)C1
  AmpC nodet inh: -4.7%
COC(=O)c1ccccc1N1C(=O)[C@@H]2C(c3ccc(F)cc3)=NO[C@@H]2C1=O
  AmpC nodet inh: 62.9%
Cn1c(SCc2nn[nH]n2)nc2c1c(=O)n(Cc1ccccc1Cl)c(=O)n2C
  AmpC nodet inh: 0.9%
COC(=O)c1cc(NC(=O)C2CC2)cc(C(=O)OC)c1
  AmpC nodet inh: 4.9%
Cc1ccc(CC2CC(=O)N(c3cc(C)on3)C2=O)cc1 (stereo unspecified)
  AmpC nodet inh: 18.7%
CC1(C)Cc2c(sc3c2c2ncnn2c2nnc(SCC(=O)NCc4ccco4)n32)CO1
  AmpC nodet inh: -8.3%
N#CC1=C(N)SC(N)=C(C#N)C1c1ccoc1
  AmpC nodet inh: -16.7%
N#Cc1cccc(NC(=O)N2CCCC3(CCN(C(=O)c4ccncc4)CC3)C2)c1
  AmpC nodet inh: -6.5%
Cc1cccc(N2C(=O)c3cccc4c(N(C)CCO)ccc(c34)C2=O)c1
  AmpC nodet inh: 46.7%
CCCCOC(=O)C1C2C=CC3(CN(CCc4ccccc4)C(=O)C13)O2 (stereo unspecified)
  AmpC nodet inh: 3.98µM*[single pt active]
Cn1c(C(=O)O)c(CC(=O)NCC2COc3ccccc3O2)c2ccccc21 (stereo unspecified)
  AmpC nodet inh: 1.3%
CCOC(=O)CSc1nnc(CNC(=O)c2cccs2)n1-c1cc(C)ccc1C
  AmpC nodet inh: 48.1%
Nc1nonc1-c1noc(CCCCCN2C(=O)c3ccccc3C2=O)n1
  AmpC nodet inh: -2.0%
O=C(CS(=O)(=O)c1ccccc1)Nc1nc(-c2ccccc2)cs1
  AmpC nodet inh: -18.4%
CCOc1ccccc1OCCCCCc1c(C)n[nH]c1C
  AmpC nodet inh: 73.0%
COC(=O)c1c(NC(=O)c2cccs2)sc2c1CCC(C)C2 (stereo unspecified)
  AmpC nodet inh: 4.3%
COc1cccc(-c2ccc3ncnc(NCCN4CCOCC4)c3c2)c1
  AmpC nodet inh: 123.4%
CCc1c(C(=O)Nc2ccncc2)csc1C
  AmpC nodet inh: -8.1%

4 entries from above, as comma-separated lines.
canonical_smiles,AmpC nodet inh
N#Cc1cccc(NC(=O)N2CCCC3(CCN(C(=O)c4ccncc4)CC3)C2)c1,-6.5%
CCC/C=C(\CCC)C(NC(=O)c1ccc(-c2ccccc2)cc1)c1ccc(C(=O)OC)cc1 (stereo unspecified),-6.2%
O=C(Nc1ccccc1Cl)c1cnccn1,-1.8%
COC(=O)c1cc(NC(=O)C2CC2)cc(C(=O)OC)c1,4.9%

Compounds above with a thiophene ring, fused or not, in the order listed:
c1csc(CNc2nc3ccccc3n2CCN2CCOCC2)c1
  AmpC nodet inh: -18.8%
Cc1sc2nc3c4ccccc4c(NCc4ccco4)nn3c(=O)c2c1C
  AmpC nodet inh: 81.9%
CC1(C)Cc2c(sc3c2c2ncnn2c2nnc(SCC(=O)NCc4ccco4)n32)CO1
  AmpC nodet inh: -8.3%
CCOC(=O)CSc1nnc(CNC(=O)c2cccs2)n1-c1cc(C)ccc1C
  AmpC nodet inh: 48.1%
COC(=O)c1c(NC(=O)c2cccs2)sc2c1CCC(C)C2 (stereo unspecified)
  AmpC nodet inh: 4.3%
CCc1c(C(=O)Nc2ccncc2)csc1C
  AmpC nodet inh: -8.1%

New compounds follow:
CCOC(=O)N1CCC(NC(=O)c2ccc(NC(=O)C3CCCO3)cc2)CC1 (stereo unspecified)
  AmpC nodet inh: 14.7%
COc1ccc(S(=O)(=O)Nc2nncs2)cc1
  AmpC nodet inh: -11.7%
O=C(NCc1ccccc1)C1C2C=CC3(CN(Cc4cccnc4)C(=O)C13)O2 (stereo unspecified)
  AmpC nodet inh: 2.0%
O=C(CCCn1c(=O)c2sccc2n(CC(=O)OCc2ccccc2)c1=O)NCc1ccco1
  AmpC nodet inh: 25.4%
CCOC(=O)CC1=C(C(=O)OCC)C(c2ccc(C)o2)C(C#N)=C(N)O1 (stereo unspecified)
  AmpC nodet inh: 10.4%
CC(C)=C[C@H]1[C@@H](C(=O)Oc2ccccc2C(C)C)C1(C)C
  AmpC nodet inh: -0.1%[5.75 µM]
Cc1noc(C(=O)N2CC3(C)CC2CC(C)(C)C3)c1Cl (stereo unspecified)
  AmpC nodet inh: 33.6%
O=S(=O)(c1cccs1)N1CCN(CC(O)COC2CCCc3ccccc32)CC1 (stereo unspecified)
  AmpC nodet inh: 61.0%
COc1ccccc1-c1c(C#N)c(SCC(=O)N2CCCC2)nc(C)c1C(N)=O
  AmpC nodet inh: 5.9%
Cn1c(C(=O)Nc2ccc3c(c2)OCCO3)cc2sccc21
  AmpC nodet inh: -19.1%
C=C(C)[C@H]1CN[C@H](C(=O)O)[C@@H]1CC(=O)O
  AmpC nodet inh: 18.0%
COc1ccc(OC)c(C(=O)CSc2nnc(Cc3cccs3)n2C)c1
  AmpC nodet inh: 31.1%
COC(=O)c1ccccc1NC(=O)CSc1nnc(-c2ccoc2C)n1C
  AmpC nodet inh: 19.0%
CC(=O)C1=C(C)Nc2ncnn2C1c1ccc(Cl)cc1Cl (stereo unspecified)
  AmpC nodet inh: 11.6%
Cc1nnc(SC(C)C(=O)Nc2ccc(S(=O)(=O)N3CCCCC3)cc2)s1 (stereo unspecified)
  AmpC nodet inh: 31.5%
Cc1cc(NC(=O)CN2CCCC2c2nc3ccccc3s2)no1 (stereo unspecified)
  AmpC nodet inh: 30.0%
Cn1cccc1C(=O)Nc1nc(-c2ccccn2)cs1
  AmpC nodet inh: -10.8%
CCN(CC)C(=O)c1cn(C)c(=O)c2cc(OC)c(OC)cc12
  AmpC nodet inh: 5.0%
COCCn1c(=O)c(-c2ccccc2)nc2cnc(N3CCOCC3)nc21
  AmpC nodet inh: 13.2%
CCCNC(=O)C1CCN(c2nc(C)cc(C)n2)CC1
  AmpC nodet inh: 9.8%
O=C(c1ccccc1NS(=O)(=O)c1cccs1)N1CCCC1
  AmpC nodet inh: 6.5%
COc1ccc(NC(=S)Nc2ccccc2)cc1
  AmpC nodet inh: 3.9%[5.75 µM]
COc1ccccc1C(=O)NCCCN1CCCC1=O
  AmpC nodet inh: -3.3%
CCOC(=O)N1CCC2(CC1)C(C#N)=C(N)Oc1n[nH]c(CSc3ccc(C)cc3)c12
  AmpC nodet inh: -4.2%
O=C1OC(=O)c2ccccc21
  AmpC nodet inh: -0.6%

O=C(c1oc(=O)c2ccccc2c1-c1ccccc1)N1CCN(C2CCCCC2)CC1
  AmpC nodet inh: 39.8%
C=CCn1cnc2c(c1=O)c1nc3ccccc3nc1n2/N=C/c1cccc(OC)c1OC
  AmpC nodet inh: 95.7%
COc1cccc(-c2nccc(NCc3ccc(OC)cc3OC)n2)c1
  AmpC nodet inh: 78.0%
N#C/C(=C\c1ccc(O)c(O)c1)C(=O)NCCCCc1ccccc1
  AmpC nodet inh: ?
COc1cccc(OCc2nc3ccccc3c(=O)n2N)c1
  AmpC nodet inh: -5.1%
CCCCn1nnnc1NCc1cc(OC)c(OC)cc1OC
  AmpC nodet inh: 9.2%
CC(=O)Cc1nsc(NC(=O)c2c(-c3ccccc3Cl)noc2C)n1
  AmpC nodet inh: 5.0%
O=C(c1cc(-c2ccccc2)nc2ccccc12)N1CCC2(CC1)OCCO2
  AmpC nodet inh: 79.5%
Cc1ccnc(NC(=O)CN(C)S(=O)(=O)c2cccc3nsnc23)c1
  AmpC nodet inh: -4.9%
COc1cccc(C(c2nnnn2Cc2ccccc2)N2CCN(C(=O)c3ccco3)CC2)c1OC (stereo unspecified)
  AmpC nodet inh: 108.4%
NC(=O)c1cc(N2CC2)c([N+](=O)[O-])cc1[N+](=O)[O-]
  AmpC nodet inh: 5.1%
O=C(NCCC(=O)N1CCNC1=O)OCc1ccccc1
  AmpC nodet inh: 15.2%
COc1ccc(-c2cnn(-c3ccccc3)c2N)cc1OC
  AmpC nodet inh: -5.4%
CC(C)CCOC(=O)C1C2C=CC3(CN(Cc4cccs4)C(=O)C13)O2 (stereo unspecified)
  AmpC nodet inh: 3.98µM*[single pt active]
O=P(O)(O)c1ccccc1OCc1ccccc1
  AmpC nodet inh: -13.0%
CCN1CCCC1CNC(=O)c1c(O)c2c([nH]c1=O)CCCC2 (stereo unspecified)
  AmpC nodet inh: -7.7%
Cc1ccc(-c2nnc(CSc3nnc4c5c(C)c(C)sc5nc(C(C)C)n34)o2)cc1
  AmpC nodet inh: 56.1%
O=C(CN1CCCC1)N1CCCc2c1c(=O)oc1ccc(OCc3ccccc3)cc21
  AmpC nodet inh: 73.6%
O=C(NCCN1CCCC1)C1CCN(S(=O)(=O)N2CCC3(CC2)OCCO3)CC1
  AmpC nodet inh: 22.3%
O=C(CSc1nnc(-c2ccco2)n1Cc1ccccc1)OC1CCCCC1
  AmpC nodet inh: 38.4%
CCn1c(=O)n(CC)c2cc(S(=O)(=O)N3CCc4ccccc43)ccc21
  AmpC nodet inh: 119.4%
CC(C)NC(=O)CSc1nc2ccccc2n1-c1ccccc1
  AmpC nodet inh: 34.2%
CCCNC[C@H](O)COc1ccccc1C(=O)CCc1ccccc1
  AmpC nodet inh: 21.8%[12.8 µM]
CSc1nc(-c2ccccc2)nc(N2CCN(C)CC2)c1C(C)=O
  AmpC nodet inh: 119.8%
COc1ccc(/C=C(\C#N)C(N)=O)cc1OC
  AmpC nodet inh: 7.0%[5.75 µM]

CCOc1ccc(NS(=O)(=O)c2ccc(NS(C)(=O)=O)cc2)cc1
  AmpC nodet inh: -15.7%
C=CC#N
  AmpC nodet inh: -7.1%
O=C(Nc1nnc(C2CCCCC2)s1)c1cccs1
  AmpC nodet inh: -15.1%
Cc1cccc(-c2nnc(SCC#N)n2-c2ccccc2)c1
  AmpC nodet inh: 13.1%
COc1ccc(Cn2c(=O)[nH]c3cc(C(=O)NCc4ccc5c(c4)OCO5)ccc3c2=O)cc1
  AmpC nodet inh: 12.6µM*[single pt active]
O=C(NCC1CCCO1)c1cnn2c1NC(c1ccccc1)CC2C(F)(F)F (stereo unspecified)
  AmpC nodet inh: 61.4%

Ordered by length of the SMILES (smallest number first): 3 of the compounds above
Cc1ccnc(NC(=O)CN(C)S(=O)(=O)c2cccc3nsnc23)c1
  AmpC nodet inh: -4.9%
Cn1c(SCc2nn[nH]n2)nc2c1c(=O)n(Cc1ccccc1Cl)c(=O)n2C
  AmpC nodet inh: 0.9%
C=CCn1cnc2c(c1=O)c1nc3ccccc3nc1n2/N=C/c1cccc(OC)c1OC
  AmpC nodet inh: 95.7%

High-throughput results (PubChem)
